Screening results: PubChem BioAssay, several laboratories
HSV augment – HSV replication enhancement. HSV replication augmentation in cells, fold increase. maximum fold increase. actives 0.005% (n = 220,000). AID 1956;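 active = peak rise of 1.5-fold or more in the series; inconclusive = self-fluorescent or not available for retest; tested in PC3 cells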;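 note: first round at 10 µM; read as green reporter fluorescence; hits show the peak of a series up to 25 µM; 1 = signal of infected wells without compound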
RGS16-Gao HTS – modulates binding between human RGS16 and Galphao | O15492+P09471 | actives 0.38% (n = 220,000) | bead-based flow cytometry RGS16-Galphao binding, fluorescence; actives lie on both sides | binding response (% of control), % at 10 µM;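 active = below 25% or above 175%, edge rows of some plates excepted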;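 note: Galphao activated by GDP with aluminum fluoride before binding; 100% = wells without compound and 0% = beads without RGS; some results beyond the cut were filed as inactive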
PKD1 inh – inhibitors of human PKD1 kinase | AID 797 | actives 0.056% (n = 200,000) | PKD1 kinase fluorescence polarization assay | inhibition, %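 (about 10 µM by stock and volumes)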 | Q15139;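 active = inhibition of 50% or more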;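 note: controls were vehicle for no effect and a reference inhibitor for full effect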
Target sequence (Q15139 whole entry, looked up): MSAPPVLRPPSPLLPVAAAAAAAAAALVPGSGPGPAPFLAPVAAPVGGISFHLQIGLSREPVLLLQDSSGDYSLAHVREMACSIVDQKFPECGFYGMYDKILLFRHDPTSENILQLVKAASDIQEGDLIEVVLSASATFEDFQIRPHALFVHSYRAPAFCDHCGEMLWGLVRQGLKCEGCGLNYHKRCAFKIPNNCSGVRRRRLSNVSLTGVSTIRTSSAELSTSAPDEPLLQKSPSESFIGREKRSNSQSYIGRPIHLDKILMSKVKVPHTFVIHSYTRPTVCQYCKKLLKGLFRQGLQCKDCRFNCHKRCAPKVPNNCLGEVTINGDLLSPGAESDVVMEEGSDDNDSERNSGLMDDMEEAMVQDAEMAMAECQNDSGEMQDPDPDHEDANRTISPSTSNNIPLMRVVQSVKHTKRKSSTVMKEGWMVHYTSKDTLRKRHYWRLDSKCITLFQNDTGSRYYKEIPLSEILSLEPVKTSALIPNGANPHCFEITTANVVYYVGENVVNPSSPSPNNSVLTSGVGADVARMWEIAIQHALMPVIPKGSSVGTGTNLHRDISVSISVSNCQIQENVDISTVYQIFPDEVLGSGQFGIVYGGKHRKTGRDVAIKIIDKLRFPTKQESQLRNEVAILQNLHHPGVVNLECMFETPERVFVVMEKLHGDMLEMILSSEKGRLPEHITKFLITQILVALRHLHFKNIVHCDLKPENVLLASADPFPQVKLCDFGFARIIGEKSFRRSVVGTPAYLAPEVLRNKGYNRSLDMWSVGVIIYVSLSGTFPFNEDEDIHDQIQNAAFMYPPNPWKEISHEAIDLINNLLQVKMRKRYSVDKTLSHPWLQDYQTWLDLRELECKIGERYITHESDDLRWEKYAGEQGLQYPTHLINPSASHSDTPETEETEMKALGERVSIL
INS promoter inh – TRM-6 insulin promoter activity inhibition. actives 0.9% (n = 130,000). AID 1273. TRM-6 cells (human fetal islet line), insulin promoter-eGFP reporter, imaging; reporter expression induced with tamoxifen. inhibition, % at 2 µM;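 active = inhibition above the mean plus 3 SD, with well images judged a real hit on visual review, cut at about 60% in these data, passing the limit was not always enough; inconclusive = inhibition over the cutoff but images rejected on review; inactive = inhibition not above the cutoff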
GALR2 ag – GALR2 (human) receptor agonism | actives 0.48% (n = 140,000) | GALR2-expressing cells, agonist activation read-out | activation, %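 (tested at 5 µM)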 | O43603;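 active = above mean plus 3 SD of all compounds, about 5% in these data, not always enough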;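 note: 0% = vehicle buffer wells and 100% = reference agonist at full effect; tested in CHO reporter cells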
INS promoter inh cell count – also measured in INS promoter inh; calls as there; normalized cell count, %; measured here: cell count, toxicity; reference of the scale not given here;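 cells exposed to compound for 48 h; stained nuclei by imaging scaled within each plate; lower means fewer cells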
HSV augment primary fold – further read-out of HSV augment, marked with its call; fold increase; compound at 10 µM; measured here: primary screen fold increase 10 uM; tested in PC3 cells;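 GFP signal in the first replicate; 1 = infected wells without compound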
Starred values were filed as active, the others as inactive; i = inactive; ? = inconclusive; nt = not tested or not shown.

SMILES | HSV augment | HSV augment primary fold | RGS16-Gao HTS | PKD1 inh | INS promoter inh | INS promoter inh cell count | GALR2 ag
COc1ccc2[nH]c3c(=O)n(/N=C/c4ccc(OC)c(CN5CCCC5)c4)c(C)nc3c2c1 | i | 0.81 | 102 | nt | nt | nt | nt
CCc1ccc(NC(=O)N2CCN(c3ccc(F)cc3)CC2)cc1 | i | 1.1 | 98 | -2 | nt | nt | nt
O=C(Nc1ccccc1)N1CCSc2cc(Cl)ccc21 | i | 0.71 | 99 | -15 | 29 | 71 | -2.3
COC(=O)c1ccc(C)c(NC(=S)NCc2ccc(Cl)cc2)c1 | i | 0.96 | 102 | -8 | nt | nt | -0.9
Cn1ccnc1C(O)(c1nnc(-c2ccccc2)o1)C(F)(F)F (stereo not given) | i | 1 | 142 | -33 | 47 | 66 | -3.0
CCCc1cc(=O)[nH]c(SCCOc2ccc(Cl)cc2)n1 | i | 0.8 | 98 | -1 | 0 | 106 | -0.8
COc1cccc(-n2nnnc2SCC(=O)NCCc2ccc(OC)c(OC)c2)c1 | i | 0.97 | 97 | -3 | nt | nt | nt
C/C(=C\C(=S)Nc1ccccc1)Nc1cccc2ccccc12 | i | 0.99 | 113 | -1 | 19 | 121 | -2.4
OCCC1CN(Cc2nc3c(s2)CCCC3)CCN1CCc1ccccc1 (stereo not given) | i | 1.2 | 101 | 0 | nt | nt | nt
CCOc1ccc(-c2nc(S(=O)(=O)c3ccccc3)c(NCc3cccnc3)o2)cc1 | i | 0.96 | 109 | 8 | -20 | 126 | -0.4
COc1ccc(C(=O)Nc2ccc(Cl)cc2C(=O)NCc2ccco2)cc1 | i | 0.76 | 106 | -11 | 14 | 104 | 0.1
CC(C)(C)NC(=O)C1CC(=O)OC12CCOC(C)(C)C2 (stereo not given) | i | 0.85 | 87 | -4 | nt | nt | nt
Cc1ccc(C(NC(N)=O)c2ccccc2C)cc1 (stereo not given) | i | 0.89 | 103 | 5 | -6 | 194 | -1.7
CCOC(=O)C1=C(C)Nc2nc(SCC(=O)OC)nn2C1c1cc(F)cc(F)c1 (stereo not given) | i | 0.81 | 93 | 1 | -27 | 104 | -1.5
COC(=O)c1ccc(Sc2ccccc2NS(=O)(=O)c2ccc(NC(C)=O)cc2)nc1 | i | 0.87 | 151 | 7 | 50 | 162 | -3.0
C(=C\c1nc(-c2cccnc2)no1)/c1ccccc1 | i | 0.96 | 100 | -3 | 70* | 100* | nt
c1nc(N2CCC3(CC2)OCCO3)c2[nH]cnc2n1 | i | 1 | 105 | -2 | 21 | 121 | -2.3
Cc1cc(C)n(CC(C)O)c(=O)c1C#N (stereo not given) | i | 1.2 | 101 | -8 | 46 | 102 | 1.4
O=C(COC(=O)c1cc(-c2cccs2)nc2ccccc12)NC1CCS(=O)(=O)C1 (stereo not given) | i | 1.1 | 97 | -6 | 10 | 58 | nt
COc1ccc(Nc2nnc(Cc3ccccc3)c(=O)[nH]2)c(OC)c1 | i | 1.1 | 111 | -15 | 86* | 117* | -3.1
COc1cccc(C(=O)NCCCn2ccnc2)c1 | i | 1.2 | 97 | -6 | -29 | 128 | nt
CCOc1ccc(-c2csc(NC(=O)c3ccc(S(=O)(=O)N4CCc5ccccc5C4)cc3)n2)cc1 | i | 1 | 102 | 4 | nt | nt | 0.5
Cc1ccc(C)c(NS(=O)(=O)c2ccc(OCC(=O)NCc3ccccn3)cc2)c1 | i | 1 | 97 | -7 | nt | nt | nt
CC(=O)NCc1ccc(S(=O)(=O)N/N=C/c2ccccc2)cc1 | i | 0.87 | 68 | -2 | 57 | 115 | 0.1
COc1ccc(NC(=O)NCCc2ccc(Cl)cc2)cc1OC | i | 0.98 | 0.8* | -4 | nt | nt | nt

Further structures follow:
SMILES | HSV augment | HSV augment primary fold | RGS16-Gao HTS | PKD1 inh | INS promoter inh | INS promoter inh cell count | GALR2 ag
COc1cc(CO)cc(-c2cc(CO)cc(OC)c2OC)c1OC | i | 1 | 102 | -10 | 50 | 167 | -2.7
NC(=NCCc1c[nH]c2ccccc12)NC(=O)c1ccc(Cl)cc1 | i | 0.89 | 113 | 0 | 20 | 79 | nt
O=Cc1cnc(N2CCN(c3ccccc3)CC2)s1 | i | 1 | 104 | 3 | -33 | 61 | nt
CCCCCCCN1C2=NCCCN2c2ccccc21 | i | 0.75 | 98 | -9 | -49 | 154 | nt
CCC/C=N/NC(=O)c1ccc(F)cc1 | i | 1 | 106 | 6 | nt | nt | nt
CCOC(=O)c1cnc(Nc2nc3ccccc3o2)nc1CN1CCN(C)CC1 | nt | nt | 100 | -6 | -10 | 90 | 0.0
Cc1ccc(S(=O)(=O)Oc2ccccc2/C=N/Nc2ccc(C(=O)O)cc2)cc1 | i | 1 | 99 | nt | nt | nt | nt
O=C(CN1C(=O)C2CC=CCC2C1=O)OCCN1C(=O)c2ccccc2C1=O (stereo not given) | i | 0.97 | 114 | 1 | nt | nt | -2.0
COc1ccc(-c2c(C)n([O-])c3c([n+]2=O)CCCCC3)cc1 | i | 1.2 | 124 | 12 | 10 | 112 | -0.4
O=C(N/N=C/c1sc(N2CCCCC2)nc1-c1cccs1)C1CC1 | i | 0.97 | 85 | -3 | -55 | 76 | nt
Cc1ccc(NC2=C(Cl)C(=O)OC2OC(=O)c2ccccc2C)cc1 (stereo not given) | i | 0.81 | 106 | -4 | nt | nt | nt
CCCCNC(=O)COC(=O)c1cc(Br)ccc1Cl | i | 0.97 | 97 | -7 | nt | nt | -0.2
C=C(C)C(=O)N1CC2(CC(c3cccc(NC(=O)/C=C\C)c3)=NO2)C[C@H]1C(N)=O (stereo not given in full) | i | 1.1 | 102 | nt | nt | nt | nt
O=C1CCCCC1Sc1nnc(Nc2ccccc2)s1 (stereo not given) | i | 1.1 | 109 | -2 | nt | nt | nt
C/C(=N\NC(=O)c1c(Br)c(C)nn1C)c1cccc(NC(=O)c2ccccc2F)c1 | i | 0.81 | 103 | 1 | nt | nt | 0.3
Cn1c(=O)c(C(=O)CN2CCCCCC2)c(N)n(Cc2ccccc2)c1=O | i | 1.6 | 103 | -6 | nt | nt | nt
CCOC(=O)CCP(=O)(O)C(O)c1ccccc1 (stereo not given) | i | 0.9 | 98 | -6 | nt | nt | -0.8
COc1cc(/C=C2\SC(=S)N(C(Cc3ccccc3)C(=O)O)C2=O)ccc1O (stereo not given) | ? | nt | 108 | nt | nt | nt | nt
COc1ccccc1NC(=S)NCc1cccs1 | i | 0.91 | 105 | 9 | -20 | 76 | -0.4
O=c1c([N+](=O)[O-])c(N2CCOCC2)c2ccccc2n1-c1ccccc1 | i | 0.89 | 110 | -5 | 32 | 94 | nt
CC12CCC(C(=O)NCC3CCCO3)(OC1=O)C2(C)C (stereo not given) | i | 0.83 | 104 | -4 | -344 | 80 | -1.9
O=C(O)CSC1c2ccccc2C(=O)N1Cc1ccccc1 (stereo not given) | i | 0.95 | 97 | -2 | nt | nt | -2.0
CCOc1ccc2ccccc2c1/C=N/n1cncn1 | i | 0.79 | 104 | -5 | -5 | 95 | -1.1
Cc1csc(NC(=O)c2nc3nc(C)cc(C)n3n2)n1 | i | 1.1 | 103 | -9 | 21 | 79 | -1.8
COc1ccc(NC(=O)c2cc3c(Cl)nc4ccccc4c3s2)cc1OC | i | 0.67 | 108 | -2 | nt | nt | 3.1

Next section
SMILES | HSV augment | HSV augment primary fold | RGS16-Gao HTS | PKD1 inh | INS promoter inh | INS promoter inh cell count | GALR2 ag
O=C(Nc1ccc(-c2nc3ccccc3[nH]2)cc1)c1ccco1 | i | 0.89 | 103 | -10 | nt | nt | -0.6
COc1ccc(N2C(=O)CC(NNC(=O)c3cccnc3)C2=O)cc1 (stereo not given) | i | 0.99 | 92 | nt | nt | nt | nt
O=C(Nc1ccc(S(=O)(=O)Nc2nccs2)cc1)c1cnc(Cl)c(Cl)c1 | i | 0.86 | 103 | nt | nt | nt | nt
CC(C)Oc1ccc(CNC2CCOC(C)(C)C2)cc1 (stereo not given) | i | 1 | 103 | 4 | nt | nt | -4.9
Cc1ccc(/C([O-])=C(/C(=S)Nc2ccc(SC(F)F)cc2)[n+]2ccccc2)cc1[N+](=O)[O-] | i | 1.1 | 98 | -2 | nt | nt | nt
COc1ccc(N=Cc2oc3ccc4ccccc4c3c2O)cc1 | nt | nt | 96 | -2 | -114 | 141 | nt
CC(=O)NCCOC(=O)Nc1sc(=S)n(C)c1C | i | 0.94 | nt | 3 | -11 | 139 | -1.7
C/C(=N\NS(=O)(=O)c1ccc([N+](=O)[O-])cc1)c1ccc(NC(=O)c2ccco2)cc1 | i | 0.98 | 111 | 8 | -71 | 60 | nt
O=C(CSc1nnnn1-c1cccnc1)NCc1cccs1 | i | 0.98 | 97 | -2 | 0 | 126 | -2.5
COc1cc(NS(=O)(=O)c2ccc(NC(=S)NC(=O)/C=C/c3ccc(F)cc3)cc2)ncn1 | i | 1.1 | 98 | nt | nt | nt | nt
Cc1nc(-c2ccc(S(=O)(=O)N3CCCCCC3)cc2)cs1 | i | 0.97 | 99 | 3 | 31 | 128 | -1.4
c1ccc(OCCCN2CCCC2)cc1 | i | 0.92 | 104 | 0 | 3 | 109 | -3.3
C=CCSc1nc2ccccc2n1C(=O)/C=C/c1ccc(OC)c(OC)c1 | i | 0.77 | 124 | 1 | -16 | 71 | -0.2
Cc1c(NC(=S)Nc2ccc(Cl)cc2)c(=O)n(-c2ccccc2)n1C | i | 1.1 | 105 | -2 | nt | nt | nt
CCOc1cc(/C=N\NC(=O)Cn2nc([N+](=O)[O-])cc2C)ccc1OCc1cccc2ccccc12 | i | 1.1 | 98 | 2 | -19 | 78 | 35*
O=C(CSc1nc2c(c(C(F)(F)F)n1)CCc1ccccc1-2)NCc1ccco1 | i | 0.92 | 89 | 12 | -24 | 114 | -0.2
COc1nc(-c2cccs2)cc(-c2ccc(C)cc2)c1C#N | i | 0.74 | 97 | 8 | nt | nt | -2.5
CCCc1ccc(OCC(=O)O)cc1 | i | 0.88 | 98 | -8 | nt | nt | -1.8
O=c1c(Cl)c(N/N=C/c2ccc(Cl)cc2)cnn1-c1ccccc1 | i | 0.96 | 101 | 4 | -17 | 104 | 2.1
Cc1nc(-c2ccc3c(c2)OCO3)cs1 | i | 0.96 | 107 | -4 | 46 | 108 | -1.0
CC(C)(C)C(=O)N1CCN(c2ccc([N+](=O)[O-])cc2Cl)CC1 | i | 0.89 | nt | 5 | 17 | 103 | -1.2
COC(=O)CSc1nccc(-c2cccs2)n1 | i | 0.93 | 101 | 2 | nt | nt | nt
Cc1noc(C)c1COc1cccc(C(=O)Oc2ccc3c(c2)OCO3)c1 | i | 0.74 | 99 | -2 | -10 | 57 | -2.2
O=C(NCc1ccco1)c1nn(-c2ccccc2)c(=O)c2ccccc12 | i | 0.96 | 99 | -3 | nt | nt | -0.8
COc1ccc(S(=O)(=O)N(CCCN2CCCC2=O)Cc2cc3cc(C)c(C)cc3[nH]c2=O)cc1 | i | 0.88 | 71 | -10 | nt | nt | -1.3
Cc1cc(C)n(-c2nc3ccccc3nc2N2CCN(C(=O)c3ccc(F)cc3)CC2)n1 | i | 0.95 | 101 | 1 | 40 | 164 | -3.0

As entered above:
Value for OCCC1CN(Cc2nc3c(s2)CCCC3)CCN1CCc1ccccc1 (stereo not given) in HSV augment primary fold: 1.2
Value for Cc1ccc(NC2=C(Cl)C(=O)OC2OC(=O)c2ccccc2C)cc1 (stereo not given) in PKD1 inh: -4

In the list so far, these have fluorine:
SMILES | HSV augment | HSV augment primary fold | RGS16-Gao HTS | PKD1 inh | INS promoter inh | INS promoter inh cell count | GALR2 ag
CCc1ccc(NC(=O)N2CCN(c3ccc(F)cc3)CC2)cc1 | i | 1.1 | 98 | -2 | nt | nt | nt
Cn1ccnc1C(O)(c1nnc(-c2ccccc2)o1)C(F)(F)F (stereo not given) | i | 1 | 142 | -33 | 47 | 66 | -3.0
CCOC(=O)C1=C(C)Nc2nc(SCC(=O)OC)nn2C1c1cc(F)cc(F)c1 (stereo not given) | i | 0.81 | 93 | 1 | -27 | 104 | -1.5
CCC/C=N/NC(=O)c1ccc(F)cc1 | i | 1 | 106 | 6 | nt | nt | nt
C/C(=N\NC(=O)c1c(Br)c(C)nn1C)c1cccc(NC(=O)c2ccccc2F)c1 | i | 0.81 | 103 | 1 | nt | nt | 0.3
Cc1ccc(/C([O-])=C(/C(=S)Nc2ccc(SC(F)F)cc2)[n+]2ccccc2)cc1[N+](=O)[O-] | i | 1.1 | 98 | -2 | nt | nt | nt
COc1cc(NS(=O)(=O)c2ccc(NC(=S)NC(=O)/C=C/c3ccc(F)cc3)cc2)ncn1 | i | 1.1 | 98 | nt | nt | nt | nt
O=C(CSc1nc2c(c(C(F)(F)F)n1)CCc1ccccc1-2)NCc1ccco1 | i | 0.92 | 89 | 12 | -24 | 114 | -0.2
Cc1cc(C)n(-c2nc3ccccc3nc2N2CCN(C(=O)c3ccc(F)cc3)CC2)n1 | i | 0.95 | 101 | 1 | 40 | 164 | -3.0
